Screens: PubChem, National Center for Advancing Translational Sciences (NCATS)
D2 PAM: potentiates the human D2 dopamine receptor allosterically; AID 624464; DiscoveRx D2 beta-arrestin cells, luminescence, 90 min; 100% = 57 uM dopamine signal; actives 0.23% (n = 360,000); potentiation, % (concentration not given with the values); active = potentiation of 50% or more; inconclusive = 30% to 50%; inactive = 30% or less;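 also: compound concentration not given in the record; tested on top of an EC20 dose of dopamine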
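PathHunter D2 cells, attached overnight at 37 deg C, received compound in DMSO plus dopamine at EC20 (50 nM final) for 90 min at 37 deg C. Beta-arrestin recruitment was read as luminescence after 1 h with detection reagent at ambient temperature.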
Sfp inh: inhibitors of Bacillus subtilis Sfp phosphopantetheinyl transferase; Q9F4F7; Potency, µM, for inactives: max response, negative = inhibition, hits mostly inhibitors; Biochemical Sfp PPTase activity, qHTS; AID 1490; actives 3.5% (n = 310,000); active = well fitted inhibition curve with a large enough effect; inconclusive = small, poorly fitted or top-dose-only effect, or another doubt; inactive = no such curve, though single readings can be large or run the other way;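 also: the enzyme is Sfp with the accession as filed and its product quenches rhodamine fluorescence; potency is read from the fitted curve at half-maximal effect; 0% = enzyme reaction without inhibitor and -100% = no enzyme wells; top concentration of the series not given in the record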
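Buffer: 50 mM Hepes-Na pH 7.6, 10 mM MgCl2, 0.01% Nonidet P-40, 0.01% BSA. Enzyme 15 nM, pre-exposed to compound 15 min; substrates then added and fluorescence change tracked over 30 min.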
PINK1 modulator: changes PINK1 expression | Potency, µM (top dose mostly 76.6 µM), inactives show at the highest dose activation (PINK1 increase), most hits filed as activators | PINK1 immunofluorescence, high-content cytometry, 24 h | AID 624263 | actives 0.2% (n = 410,000); active = well fitted activation curve with a large enough effect; inconclusive = small, poorly fitted or top-dose-only effect; inactive = flat fitted curve, though single readings scatter; cell line not stated here;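 also: potency is read from the fitted curve at half-maximal effect; % of control where 0% means no effect; nearly all actives have a fitted effect of over 65% in size; a mitochondrial uncoupler was the plate control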
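Compound titrations (5 concentrations, 24 h) on a stable cell line; DMSO and CCCP controls. Endpoint: fixed-cell PINK1 immunofluorescence with mitochondrial, cell and nuclear markers, scanned by microplate cytometer.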
Six1-Eya2 inh: blocks human Six1 binding to Eya2. Q15475+O00167. AlphaScreen GST-Six1/His-Eya2 binding, biochemical; stronger effect = lower value; control for the full effect not named in the record. activity change, % (test concentration not listed). actives 0.56% (n = 360,000). AID 651725; in the data active = activity change below about -65%; inconclusive = about -30% to -65%; inactive = above about -30%; also: % is scaled to controls: 0 for no effect and ±100 for the full control effect; compound concentration not given in the record
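Six1/Eya2 binding was read as AlphaScreen signal after compounds were pinned into GST-Six1 plus His-tagged Eya2 (5X stock 250/500 nM) in pH 8.0 Tris/NaCl/TCEP buffer, beads added, then incubated 1 h, 37 C, dark.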
D2 agonist: agonists of human D2 dopamine receptor (beta-arrestin). actives 0.084% (n = 360,000). DiscoveRx PathHunter D2 beta-arrestin, luminescence, 90 min; 100% = 57 uM dopamine signal. activation, % (no concentration beside the values); in the data active = activation above about 40%; inconclusive = about 15% to 40%; inactive = below about 15%; also: compound concentration not given in the record; the text of the record calls up to 30% inactive
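DiscoveRx PathHunter D2 beta-arrestin cells (2,100/well) attached overnight, then compound-stimulated 90 min at 37 C in HBSS/10 mM HEPES/0.1% Tween-20 buffer; beta-galactosidase complementation read by luminescence after 1 h at ambient temperature. Dopamine 57 uM final (EC100) as control.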
CtBP-E1A inh: inhibitors of CtBP/E1A interaction; AlphaScreen GST-E1A/His-CtBP binding, 1536-well; stronger effect = lower value; control for the full effect not named in the record; activity change, % (test concentration not listed); actives 0.49% (n = 340,000); in the data active means activity change below about -65%; inconclusive means about -30% to -65%; inactive means above about -30%; also: % is scaled to controls: 0 for no effect and ±100 for the full control effect; compound concentration not given in the record
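GST-E1A and His-tagged CtBP (125 nM each as 5X stock) were preincubated with pin-transferred compound for 2 h at 37 °C in the dark, then glutathione donor and nickel acceptor beads were added for 1 h before AlphaScreen reading.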
TRPV1 potentiator: human TRPV1 potentiation. TRPV1-expressing cells, Fluo-8 calcium influx, capsaicin EC20 potentiation; host cell line not named in the record; control for the full effect not named in the record. actives 0.02% (n = 320,000). potentiation, % at 8.33 µM. Q8NER1; active means potentiation above 80%; inconclusive means 30% to 80%; inactive means below 30%; also: 0% is about no effect
Target sequence (Q8NER1 whole entry, looked up): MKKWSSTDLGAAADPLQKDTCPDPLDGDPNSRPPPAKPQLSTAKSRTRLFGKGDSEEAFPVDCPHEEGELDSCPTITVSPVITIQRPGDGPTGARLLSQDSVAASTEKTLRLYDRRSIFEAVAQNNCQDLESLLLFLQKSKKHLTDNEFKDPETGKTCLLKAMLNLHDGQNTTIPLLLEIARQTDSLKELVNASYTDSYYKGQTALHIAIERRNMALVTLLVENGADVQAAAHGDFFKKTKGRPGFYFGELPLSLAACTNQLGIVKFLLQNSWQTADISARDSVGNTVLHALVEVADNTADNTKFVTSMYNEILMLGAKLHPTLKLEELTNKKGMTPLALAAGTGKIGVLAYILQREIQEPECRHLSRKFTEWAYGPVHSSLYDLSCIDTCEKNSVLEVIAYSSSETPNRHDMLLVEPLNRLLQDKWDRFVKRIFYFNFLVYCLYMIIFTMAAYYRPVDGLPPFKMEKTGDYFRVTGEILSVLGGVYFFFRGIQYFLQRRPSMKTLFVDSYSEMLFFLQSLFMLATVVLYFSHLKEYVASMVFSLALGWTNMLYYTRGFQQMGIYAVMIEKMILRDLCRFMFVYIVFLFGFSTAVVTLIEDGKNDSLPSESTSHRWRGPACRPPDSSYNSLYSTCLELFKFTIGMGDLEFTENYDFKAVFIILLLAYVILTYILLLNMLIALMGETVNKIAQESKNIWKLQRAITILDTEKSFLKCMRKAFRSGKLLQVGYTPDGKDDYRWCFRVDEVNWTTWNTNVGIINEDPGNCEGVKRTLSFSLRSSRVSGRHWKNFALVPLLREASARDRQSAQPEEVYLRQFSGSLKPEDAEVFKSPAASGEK
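TRPV1-expressing cells were cultured overnight at 35.5C and loaded with Fluo-8 calcium dye for 40 to 90 min at room temperature. After a 10 s baseline, compound was added and calcium influx was read kinetically for 3 min (ex 480/em 520 nm).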
* hit, by the source's call; [ ] = another dose, or the depositor's remark. Outcome played no part in choosing rows (roughly 3.7% active in at least one column).

How did COCCNC(=O)C1(C)CCCN(CCOc2ccc(Cl)cc2)C1 (stereo not given) do in these assays?
D2 PAM: -9; PINK1 modulator: 0.7%; Six1-Eya2 inh: 7; D2 agonist: -3.3; CtBP-E1A inh: -1

How did Cc1nc(N2CCN(C)CC2)c2c(C)c(C(=O)Nc3ccc(C)c(F)c3)sc2n1 do in these assays?
D2 PAM: -17; Sfp inh: -2%; PINK1 modulator: -1.9%[38.3 µM]; Six1-Eya2 inh: -9; D2 agonist: -0.7; CtBP-E1A inh: -20; TRPV1 potentiator: -17

How did Cc1cc(C)n2nc(SCc3nnc(-c4ccccc4Br)o3)nc2n1 do in these assays?
D2 PAM: -1; Sfp inh: 21%; PINK1 modulator: -0.5%; Six1-Eya2 inh: -12; D2 agonist: -3.1; CtBP-E1A inh: -1; TRPV1 potentiator: 2

What do the screens show for `O=C(Nc1ccc(N2CCOCC2)cc1)c1csc([C@H]2C[C@H](O)[C@@H](CO)O2)n1`?
D2 PAM: -3; PINK1 modulator: 0.0%; Six1-Eya2 inh: 2; D2 agonist: -1.6; CtBP-E1A inh: -15

How did O=S1(=O)NC(=NCC(c2ccco2)N2CCCCC2)c2ccccc21 (stereo not given) do in these assays?
D2 PAM: -12; Sfp inh: 17%; PINK1 modulator: 1.2%; Six1-Eya2 inh: 1; D2 agonist: -6.4; CtBP-E1A inh: -6; TRPV1 potentiator: -4

What do the screens show for `O=C(NCc1ccccc1)Nc1cccn(Cc2ccccc2F)c1=O`?
D2 PAM: -4; Sfp inh: -1%; PINK1 modulator: 4.3%; Six1-Eya2 inh: -6; D2 agonist: 1.0; CtBP-E1A inh: -1; TRPV1 potentiator: -9

Results for Cc1cc(=O)[nH]c(SCC(=O)Nc2ccc(C)c(S(=O)(=O)N3CCCCC3)c2)n1 ?
D2 PAM: 0; Sfp inh: 22%; PINK1 modulator: -1.1%; Six1-Eya2 inh: -2; D2 agonist: -0.2; CtBP-E1A inh: -5; TRPV1 potentiator: -4

Results for COc1ccc(S(=O)(=O)N2CCOCC2)cc1NC(=O)CN(C)CC(=O)Nc1cccc(F)c1 ?
D2 PAM: -2; PINK1 modulator: 0.4%; Six1-Eya2 inh: -8; D2 agonist: -3.8; CtBP-E1A inh: -2

How did CCOC(=O)c1ccc(S(=O)(=O)NNC(=O)c2ccc3c(c2)nc(C)n3CC)cc1 do in these assays?
D2 PAM: -9; Sfp inh: 28%; PINK1 modulator: -0.7%; Six1-Eya2 inh: -1; D2 agonist: -0.2; CtBP-E1A inh: 5; TRPV1 potentiator: -3

How did O=C(COC(=O)C12CC3CC(CC(C3)C1)C2)NNC(=O)c1ccccc1 do in these assays?
D2 PAM: -12; PINK1 modulator: -1.1%; Six1-Eya2 inh: -1; D2 agonist: -4.9; CtBP-E1A inh: 3

Results for CC(C)n1c(SCC(=O)N2CCCCC2)nc2c1c(=O)n(C)c(=O)n2C ?
D2 PAM: -5; Sfp inh: 27%; PINK1 modulator: 1.3%; Six1-Eya2 inh: -1; D2 agonist: -1.9; CtBP-E1A inh: -3; TRPV1 potentiator: -5

Results for CCCc1nn2c(=O)cc(CSCC(=O)Nc3cccc(OC)c3)nc2s1 ?
D2 PAM: -13; Sfp inh: 16%; PINK1 modulator: -0.9%; Six1-Eya2 inh: 6; D2 agonist: -4.1; CtBP-E1A inh: -2; TRPV1 potentiator: -6

3 entries from above, ordered by length of the SMILES, smallest number first:
What do the screens show for `O=C(NCc1ccccc1)Nc1cccn(Cc2ccccc2F)c1=O`?
D2 PAM: -4; Sfp inh: -1%; PINK1 modulator: 4.3%; Six1-Eya2 inh: -6; D2 agonist: 1.0; CtBP-E1A inh: -1; TRPV1 potentiator: -9

How did O=S1(=O)NC(=NCC(c2ccco2)N2CCCCC2)c2ccccc21 (stereo not given) do in these assays?
D2 PAM: -12; Sfp inh: 17%; PINK1 modulator: 1.2%; Six1-Eya2 inh: 1; D2 agonist: -6.4; CtBP-E1A inh: -6; TRPV1 potentiator: -4

Results for CCCc1nn2c(=O)cc(CSCC(=O)Nc3cccc(OC)c3)nc2s1 ?
D2 PAM: -13; Sfp inh: 16%; PINK1 modulator: -0.9%; Six1-Eya2 inh: 6; D2 agonist: -4.1; CtBP-E1A inh: -2; TRPV1 potentiator: -6

Next compounds follow.
What do the screens show for `COc1cc(NC(=O)Cc2ccccc2)cc(OC)c1`?
D2 PAM: 7; Sfp inh: -6%; PINK1 modulator: -0.4%; Six1-Eya2 inh: -1; D2 agonist: -1.6; CtBP-E1A inh: 1; TRPV1 potentiator: 27

What do the screens show for `Clc1ccc(-c2nc3ccccn3c2CN2CCCCC2)cc1`?
D2 PAM: -14; Sfp inh: 9%; PINK1 modulator: 4.7%; Six1-Eya2 inh: -2; D2 agonist: -5.2; TRPV1 potentiator: -14

How did COc1cc(CCC(=O)OCC(=O)N(CC(C)C)C2CCS(=O)(=O)C2)cc(OC)c1OC (stereo not given) do in these assays?
D2 PAM: -3; PINK1 modulator: 1.2%; Six1-Eya2 inh: 9; D2 agonist: -1.9; CtBP-E1A inh: 10; TRPV1 potentiator: 11

How did COc1ccc(NC(=O)CNC(=O)Cc2ccccc2)cc1 do in these assays?
D2 PAM: 0; Sfp inh: 5%; PINK1 modulator: -0.1%; Six1-Eya2 inh: -6; D2 agonist: 5.8; CtBP-E1A inh: -3; TRPV1 potentiator: -4

How did CC(C)n1nc(C(=O)OCC(=O)c2c[nH]c3ccccc23)c2ccccc2c1=O do in these assays?
D2 PAM: 3; Sfp inh: -4%; PINK1 modulator: 13%[38.3 µM]; Six1-Eya2 inh: -9; D2 agonist: 2.8; CtBP-E1A inh: -6; TRPV1 potentiator: -11

Results for COCC(C)NC(C(=O)Nc1cccc(C(C)=O)c1)c1ccccc1 (stereo not given) ?
D2 PAM: -2; Sfp inh: 25%; PINK1 modulator: 1.7%; Six1-Eya2 inh: -5; D2 agonist: -1.6; CtBP-E1A inh: 6; TRPV1 potentiator: 7

What do the screens show for `CCS(=O)(=O)c1ccc2c(c1)N(S(C)(=O)=O)CC(C(=O)NN)O2` (stereo not given)?
D2 PAM: 5; Sfp inh: 7%; PINK1 modulator: 1.2%; Six1-Eya2 inh: 1; D2 agonist: -6.0; CtBP-E1A inh: 4; TRPV1 potentiator: -2

How did Cc1ccc(S(=O)(=O)N2[C@@H](c3ccc(Br)cc3)C(C(=O)O)=C[C@H]2C(C)(C)C)cc1 do in these assays?
D2 PAM: 2; PINK1 modulator: -1.5%; Six1-Eya2 inh: 0; D2 agonist: -0.5; CtBP-E1A inh: 8

Results for CCOC(=O)C[C@H]1c2ccccc2S(=O)(=O)N1C1CC1 ?
D2 PAM: -11; PINK1 modulator: 0.8%; Six1-Eya2 inh: -2; D2 agonist: -1.5; CtBP-E1A inh: 7

Results for CC(C)Cn1c(CN2CCN(c3ccccc3F)CC2)nc2c1c(=O)[nH]c(=O)n2C ?
D2 PAM: -4; Sfp inh: 1%; PINK1 modulator: 0.1%; Six1-Eya2 inh: -4; D2 agonist: -2.8; CtBP-E1A inh: 1; TRPV1 potentiator: -10

Results for O=C(COC(=O)c1cnccn1)NCCc1ccccc1 ?
D2 PAM: -12; Sfp inh: 23%; PINK1 modulator: -1.9%; Six1-Eya2 inh: 6; D2 agonist: -1.9; CtBP-E1A inh: -1; TRPV1 potentiator: -7

Results for CN(C)C(=O)Cn1nc(-c2ccccc2)c2ccccc2c1=O ?
D2 PAM: -16; Sfp inh: 21%; PINK1 modulator: -2.1%; Six1-Eya2 inh: 0; D2 agonist: -3.6; CtBP-E1A inh: 0; TRPV1 potentiator: 15

Entries shown so far that contain a Cl atom, in the order listed:
How did COCCNC(=O)C1(C)CCCN(CCOc2ccc(Cl)cc2)C1 (stereo not given) do in these assays?
D2 PAM: -9; PINK1 modulator: 0.7%; Six1-Eya2 inh: 7; D2 agonist: -3.3; CtBP-E1A inh: -1

What do the screens show for `Clc1ccc(-c2nc3ccccn3c2CN2CCCCC2)cc1`?
D2 PAM: -14; Sfp inh: 9%; PINK1 modulator: 4.7%; Six1-Eya2 inh: -2; D2 agonist: -5.2; TRPV1 potentiator: -14

(continued)
What do the screens show for `CCOc1ccc(CNc2ccc(CNc3ncn[nH]3)cc2)cc1`?
D2 PAM: -2; Sfp inh: 1%; PINK1 modulator: 0.1%; Six1-Eya2 inh: -9; D2 agonist: -0.1; CtBP-E1A inh: 6; TRPV1 potentiator: 3

Results for COCCNC(=O)C1CCC(CNS(=O)(=O)c2ccccc2)CC1 (stereo not given) ?
D2 PAM: -7; Sfp inh: 17%; PINK1 modulator: 0.1%; Six1-Eya2 inh: -4; D2 agonist: -3.9; TRPV1 potentiator: 1

Results for COc1ccccc1NS(=O)(=O)c1ccc(C)c(C(=O)NCC(c2cccs2)N2CCOCC2)c1 (stereo not given) ?
D2 PAM: -3; PINK1 modulator: -1.3%; Six1-Eya2 inh: 5; D2 agonist: inconclusive; CtBP-E1A inh: -27

Results for Cc1cccc(NNC(=O)C(=O)NNc2cccc(C)c2)c1 ?
D2 PAM: -23; Sfp inh: -13%; PINK1 modulator: 5.5%; Six1-Eya2 inh: 1; D2 agonist: -7.1; TRPV1 potentiator: -8

How did N#Cc1c(-c2ccc3c(c2)OCO3)csc1N do in these assays?
D2 PAM: -4; Sfp inh: -5%; PINK1 modulator: -4.4%; Six1-Eya2 inh: -3; D2 agonist: 3.3; CtBP-E1A inh: -18; TRPV1 potentiator: -14

How did COCCCNC(=O)CCc1c(C)nc2c(-c3ccc(F)cc3)c(C)nn2c1C do in these assays?
D2 PAM: -16; Sfp inh: 0%; PINK1 modulator: 0.9%; Six1-Eya2 inh: -1; D2 agonist: -5.2; TRPV1 potentiator: -25

What do the screens show for `Cc1ccc(C)c2c1[nH]c1ccc([N+](=O)[O-])cc12`?
D2 PAM: -24; Sfp inh: 8%; PINK1 modulator: -1.7%; Six1-Eya2 inh: -3; D2 agonist: 1.0; CtBP-E1A inh: 2; TRPV1 potentiator: -1

How did O=C1C2C(C(=O)N1/N=C/c1cccc([N+](=O)[O-])c1)C1C=CC2C12CC2 (stereo not given) do in these assays?
D2 PAM: -1; Sfp inh: -8%; PINK1 modulator: 1.5%; Six1-Eya2 inh: 0; D2 agonist: -1.3; CtBP-E1A inh: -4; TRPV1 potentiator: 0

How did CCN1CCC(O)(C(C(=O)O)c2ccccc2)CC1 (stereo not given) do in these assays?
D2 PAM: -8; PINK1 modulator: -1.2%; Six1-Eya2 inh: 29; D2 agonist: -2.8; CtBP-E1A inh: -8
